AmpC inh no det: inhibitors of E. coli AmpC beta-lactamase without detergent; P00811; AmpC nitrocefin hydrolysis, absorbance 480 nm, no detergent; potencies from a single point are estimates; Potency, µM (top dose mostly 28.7 µM), for inactives: at the top dose activity change, negative = inhibition; actives 1.8% (n = 71,000); AID 585; active = falling curve, for most hits resting on a single point; inconclusive = weak or doubtful change; inactive = flat or rising curve; note: % of control where 0% means no effect; about half of the hits show no inhibition at the top dose; a quarter of the inactives give rising signals
Target sequence (P00811 whole entry, looked up): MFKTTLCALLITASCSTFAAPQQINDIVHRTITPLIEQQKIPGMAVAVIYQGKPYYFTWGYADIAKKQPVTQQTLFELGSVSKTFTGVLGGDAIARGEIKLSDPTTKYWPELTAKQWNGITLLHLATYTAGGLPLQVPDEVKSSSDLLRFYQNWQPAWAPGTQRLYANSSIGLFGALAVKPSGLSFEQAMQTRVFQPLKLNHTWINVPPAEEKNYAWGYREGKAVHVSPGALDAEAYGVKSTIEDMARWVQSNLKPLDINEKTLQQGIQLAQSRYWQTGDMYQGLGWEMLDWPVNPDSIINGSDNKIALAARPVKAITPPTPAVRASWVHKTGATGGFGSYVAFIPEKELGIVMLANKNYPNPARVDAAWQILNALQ
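Enzyme, pH 7.0 phosphate. Compound titrations were pre-incubated with AmpC for 15 min at room temperature before nitrocefin (stock 800 uM) addition; product formation was recorded at 480 nm every 20 s for 4 min.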
The depositor's hits bear a star; ? = inconclusive; [ ] = another dose, or the depositor's remark. Potency is the fitted concentration of half-maximal effect.

SMILES	AmpC inh no det
CC(C)OS(C)(=O)=O	-1%
COc1ccc(CN(CC(=O)NCC2CCCO2)C(=O)CNS(=O)(=O)c2ccc(C)cc2)cc1 (stereo not drawn)	70%
COc1ccc(CC(NC(C)=O)C(=O)N2CCN(C(=O)Nc3ccc(Cl)cc3)CC2)cc1OC (stereo not drawn)	106%
CCOc1ccccc1N(CC(=O)OC)S(C)(=O)=O	0%
N#Cc1cccc(NC(=O)N2CCCC3(CCN(C(=O)c4cccc(F)c4)CC3)C2)c1	50%
O=C(CN1C(=O)CSc2ccccc21)NCCC1=CCCCC1	-4%
c1ccc(-c2cc3c(nn2)CCc2nonc2-3)cc1	1%
O/N=C1\CC/C(=N\O)c2nn(-c3ccccc3Cl)nc21	-6%
N#CCc1ccc(NC(=O)Nc2cccc(Cl)c2)cc1	2%
COc1ncc2nc(-c3cn(C)c4ccccc34)c(=O)n(CCc3ccccc3)c2n1	12%
CN1CCN(C2=Nc3ccccc3Oc3ccc(Cl)cc32)CC1	46%[12.8 µM]
CCCCn1c(CNC(=O)CC)nc2ccccc21	21%
C/C(CC(O)c1ccc2ccccc2n1)=N/O (stereo not drawn)	8%
COCC(=O)Nc1sc2c(c1C(=O)OC)CCCC2	91%
CCOc1ccc(N2CC(O)Cn3c2nc2c3c(=O)n(CCCc3ccccc3)c(=O)n2C)cc1 (stereo not drawn)	84%
Cc1cc(-c2ccccc2)c(C#N)c(SCC(N)=O)n1	-10%
CCOC(=O)N1CCN(C(=O)C2CC(=O)N(Cc3ccc(OC)cc3)C2)CC1 (stereo not drawn)	17%
Cc1nc2c(C(=O)O)cnn2c(C)c1Cc1ccccc1F	-2%
O=S(=O)(Nc1ccc2c(c1)OCCO2)c1cccc2cccnc12	?
CCOC(=O)N1CCN(c2ncnc3c2oc2nc(CC(C)C)c4c(c23)CCC4)CC1	96%
CCc1ccc(Nc2ncc3c(n2)CC(c2ccco2)CC3=O)cc1 (stereo not drawn)	6%
CC1CCN(c2nc3c(c(=O)n(C)c(=O)n3C)n2CCSc2nc3ccccc3s2)CC1	114%
COc1ccc(N2CCN(C(=O)c3sc4nc(-c5ccc(F)cc5)cn4c3C)CC2)cc1	-4%
CCCCCCCCCCCCCCCC[n+]1ccccc1	106%
Cn1c(/C(C#N)=C/C2CC=CCC2)nc2ccccc21 (stereo not drawn)	0%
Cc1cc(N2CCCc3ccccc32)n2ncnc2n1	4%
COC(=O)c1ccc(C2C(C(=O)Nc3ccccc3C)=C(C)Nc3ncnn32)cc1 (stereo not drawn)	15%
O=C(O)CCCC(=O)N1CCc2cc(S(=O)(=O)N3CCc4ccccc43)ccc21	30%
Cc1noc(/C=C/N(C)C)c1S(=O)(=O)N1CCCC(C(=O)NCc2ccccc2Cl)C1 (stereo not drawn)	62%
COCCn1nnnc1C(c1cc2cc(C)ccc2[nH]c1=O)N1CCN(C2CCCCC2)CC1 (stereo not drawn)	51%
O=C(CSc1nnc(-c2cccnc2)n1C1CCCCC1)NC1CCCC1	19%
CCC(C)n1c(C)nc2c(c1=O)c1nc3ccccc3nc1n2-c1ccc2c(c1)OCCO2 (stereo not drawn)	10%
Cc1cccc(CSc2nnc(Cn3c(=O)sc4ccccc43)n2C)c1	38%
COc1ccccc1NS(=O)(=O)c1ccc2oc(SC3CCOC3=O)nc2c1 (stereo not drawn)	-20%
O=C(CN1CCCCC1)Nc1ccc(S(=O)(=O)NC2CCCCC2)cc1	7%
O=C(c1ccccc1)n1nc(-c2ccccc2)nc1NCc1ccco1	-17%
Cc1ccc(S(=O)(=O)n2nc(-c3ccco3)nc2SCc2ccccc2)cc1	8%
CCn1c2ccc(CC(=O)O)cc2c2cc(CC(=O)O)ccc21	-6%
CCn1cc(C(=O)N2CCc3ccccc32)c(=O)c2cc(S(=O)(=O)N3CCOCC3)ccc21	118%
COCCn1c(=O)c(-c2ccc(OC)cc2)nc2cnc(Oc3cccc(Cl)c3)nc21	7%
COc1ccc2[nH]cc(CCNc3nc(-c4ccccc4OC)nc4ccccc34)c2c1	0%
C#CCN(C)[C@H](C)Cc1ccccc1	34%
O/N=C1/CCCCC1c1ccccn1 (stereo not drawn)	4%
COCCNC(=O)CN(C)S(=O)(=O)c1ccc2c(c1)OCCO2	-2%
CC(C)Cc1cc(C(=O)NCc2ccco2)no1	4%
CC(=O)Nc1ccc(S(=O)(=O)Nc2nccc(C3Cc4ccccc4C(=O)O3)n2)cc1 (stereo not drawn)	-2%
Cc1csc(C(C#N)C(=O)c2ccncc2)n1 (stereo not drawn)	-9%
Cc1ccccc1-c1ccc(C=Nc2c(C)n(C)n(-c3ccccc3)c2=O)o1	61%
CSc1nc(N)nc(SC2C=CCCC2)c1C#N (stereo not drawn)	-7%
O=C(OCc1cc2ccccc2[nH]c1=O)c1ccco1	-9%
CC(C)c1nc(SCC(=O)NCc2ccccc2)n[nH]1	0%
CCn1cc(C(=O)N2CCOCC2)c(=O)c2cc(S(=O)(=O)N(C)C3CCCCC3)ccc21	?
Cc1cc2nnc(SCc3ccccc3)n2c(N)n1	-12%
CCN(CCCNC(=O)C1CCN(S(=O)(=O)N2CCC3(CC2)OCCO3)CC1)c1ccccc1	120%
Cc1noc(C)c1C(=O)N1CCN(c2ncccn2)CC1	0%
COC(=O)c1cc(Br)c(=O)n(Cc2ccc(C(=O)O)cc2)c1	-2%
COc1ccc(CN2C(=O)c3cccnc3C2Nc2cc(Cl)ccc2OC)cc1 (stereo not drawn)	114%
CC(=O)N1CCc2cc(S(=O)(=O)CCC(=O)Nc3ccc4c(c3)OCCO4)ccc21	-23%
COC(=O)CC1C(=O)NCCN1C(=O)Nc1ccccc1 (stereo not drawn)	6%
Cc1nn(Cc2ccccc2Cl)c(C)c1NC(=O)c1cc(-c2ccc(F)cc2)on1	19%

In a second layout: entries from further up
Structure,AmpC inh no det
CC(=O)Nc1ccc(S(=O)(=O)Nc2nccc(C3Cc4ccccc4C(=O)O3)n2)cc1 (stereo not drawn),-2%
Cc1ccccc1-c1ccc(C=Nc2c(C)n(C)n(-c3ccccc3)c2=O)o1,61%
CSc1nc(N)nc(SC2C=CCCC2)c1C#N (stereo not drawn),-7%
COC(=O)c1cc(Br)c(=O)n(Cc2ccc(C(=O)O)cc2)c1,-2%
Cc1nn(Cc2ccccc2Cl)c(C)c1NC(=O)c1cc(-c2ccc(F)cc2)on1,19%

New compounds follow:
SMILES	AmpC inh no det
CC1CCCN(C/C(O)=C(\C#N)c2nc3ccccc3[nH]2)C1 (stereo not drawn)	8%
Cn1c(=O)c2c(nc(CN3CCC(C(N)=O)CC3)n2Cc2ccccc2F)n(C)c1=O	31%
CCOC(=O)C1=C(C)NC(C)=C(C(=O)OCC)C1C(=O)OC1CCOC1=O (stereo not drawn)	26%
COC(=O)c1ccc(NC(=O)N2CCOCC2)cc1	-1%
Cc1cc(C#N)c2ccccc2n1	-5%
[N-]=[N+]=CC(=O)CC[C@H](N)C(=O)O	0%[5.75 µM]
CCOC(=O)c1c(C)oc2cc(Br)c(O)c(Br)c12	-15%
COc1ccc2[nH]cc(C(=O)CN3CCC(C)CC3)c2c1	-6%
O=C(CN1C(=O)c2ccccc2C1=O)Nc1cccnc1	-16%
Cc1ccc(CCNC(=O)C2CCC(=O)N2C(C)C)cc1 (stereo not drawn)	4%
Cc1oc(-c2cccc(Cl)c2)[n+]([O-])c1C	2%
Fc1ccccc1N1CCN(Cc2ccc3c(c2)OCO3)CC1	1%
CCSc1nc2c(c(=O)[nH]1)C(c1cccnc1)C(C(=O)OC(C)C)=C(C)N2 (stereo not drawn)	-2%
Cc1ccc(OCCCC(=O)Nc2ccc(N3CCOCC3)cc2)c(C)c1	28%
Cc1cc2cc(CCNC(=O)CC(C)C)c(=O)[nH]c2cc1C	-1%
CCn1c(C(C)NC(=O)c2ccc(OC)c(OC)c2)nc2ccccc21 (stereo not drawn)	34%
CCOC(=O)c1[nH]c(C)c(/C(C)=N\O)c1C	8%
CN(C)CCCN1C(=O)C(=O)/C(=C(/O)c2ccc3c(c2)OCO3)C1c1ccccn1 (stereo not drawn)	-6%
COc1ccc([N+](=O)[O-])c2c1CCN2C(=O)CC[C@H](N)C(=O)O	5%
COc1ccc(S(=O)(=O)Cc2ccc(C(=O)N3CCCC3)o2)cc1	3.2µM*[single pt active]
COc1cc(NS(=O)(=O)c2ccc(Br)cc2)c(OC)cc1NC(=O)c1ccco1	3%
CCn1c(=O)cc(SCC(=O)NCc2ccco2)c2ccccc21	0%
COc1ccc(-c2cc(C(F)(F)F)nc(SCC(=O)N3CCOCC3)n2)cc1OC	115%
NC(=O)C1(N2CCCCC2)CCN(C(=O)c2cccn3c(=O)c4cc(Cl)ccc4nc23)CC1	139%
CCOc1ccc(-n2nnc3c(=O)n(CC(=O)N4CCCc5ccccc54)cnc32)cc1	12%
COc1ccc(Cl)cc1NC(=O)C1CCCN(c2cc(C)nc3ncnn23)C1 (stereo not drawn)	144%
COc1ccc(OC)c(CN2C(=O)CCC2(C)C(=O)NC2CCCCCC2)c1 (stereo not drawn)	52%
COC(=O)c1cccc(NC(=O)CSc2nnc(COc3cccc(C)c3)n2C)c1	86%
CN1CCN(c2nc(-c3ccccc3C(F)(F)F)nc3ccccc23)CC1	56%
CCOC(=O)c1sc(C)c2c1NC(C)(c1cccs1)NC2=O (stereo not drawn)	-3%
COc1ccccc1NS(=O)(=O)c1ccccc1C#N	4%
N#CC1=C(N)OC2=C(C(=O)CCC2)C1c1ccccc1 (stereo not drawn)	-7%
O=C(CCN1C(=O)C2C3C=CC(C3)C2C1=O)Nc1ccc(F)cc1 (stereo not drawn)	-2%
CC(=O)NC(C)C12CC3CC(CC(CC(=O)O)(C3)C1)C2 (stereo not drawn)	3%
CC(C)=CC(=O)NCCc1ccccc1	0%
Cc1ccc(S(=O)(=O)NCCC(=O)NCc2ccc3c(c2)OCO3)cc1C	?
COCc1cc(C)nc(SCC(=O)Nc2cccc(C)c2)c1C#N	-8%
CCOC(=O)c1csc(NC(=O)CSc2nnnn2-c2ccc(OCC)cc2)n1	1%
O=C(COC(=O)c1ccc[nH]c1=O)NCC1CCCO1 (stereo not drawn)	-11%
C[C@@H](C(=O)Nc1ccc2ccccc2c1)[C@H]1C[C@]1(C)[C@H](NC(=O)c1cccnc1)c1ccccc1	61%
CCCCCN(C(=O)NC(=O)Nc1ccccc1C)S(C)(=O)=O	-5%
CCCCC1(C)NC(=O)N(CC(=O)Nc2ccc(S(=O)(=O)N3CCOCC3)cc2)C1=O (stereo not drawn)	36%
COC(=O)CCn1nnc(-c2cccs2)n1	-10%
COc1ccc(C2SCC(=O)N2c2c(C)n(C)n(-c3ccccc3)c2=O)cc1 (stereo not drawn)	13%
C[C@@]1(C(NC(=O)c2ccc(-c3ccccc3)cc2)c2ccc(Cl)cc2)C[C@H]1C1CCCCC1 (stereo partly drawn)	-11%
Cc1ccc(N(CC(=O)NCc2cccnc2)S(C)(=O)=O)cc1C	9%
CCOC(=O)c1cnn(-c2nc(C)cc(C)n2)c1N	-8%
Clc1ccc(NCn2cncn2)nc1	4%
CCc1ccccc1Nc1nc(N)nc(COC(=O)c2cccn2C)n1	27%
Cc1cc(C(=O)CSc2nnnn2-c2ccccc2)c(C)n1CC1CCCO1 (stereo not drawn)	19%
NCC[C@H](N)C(=O)O	2%[5.75 µM]
Cn1c(=N)n(CC(=O)C(C)(C)C)c2ccccc21	20%
CCOc1cc(C(=O)Nc2ccon2)cc(OCC)c1OCC	-12%
ON1C(c2ccccc2C(F)(F)F)N(O)[C@H]2CCCC[C@H]21 (stereo partly drawn)	8%
CCC(OC(=O)C(NC(=O)c1ccccc1)c1ccccc1)C(=O)Nc1cc(C)on1 (stereo not drawn)	5%
COc1ccc(NS(=O)(=O)c2ccc(N)cc2)nn1	-2%[12.8 µM]
CC(=O)NCC(=O)NC(C(=O)Nc1ccc2c(c1)OCCO2)c1ccccc1 (stereo not drawn)	33%
O=c1c2ccccc2nc(-c2ccco2)n1Cc1ccccc1	5%
COc1ccc(-n2nnc3c(=O)n(CC(=O)N4CCC(Cc5ccccc5)CC4)cnc32)cc1	-3%
CC(C)N1C(=S)SC2CS(=O)(=O)C=C21 (stereo not drawn)	-1%

Among those listed so far, these have a thiophene ring, fused or not:
SMILES	AmpC inh no det
COCC(=O)Nc1sc2c(c1C(=O)OC)CCCC2	91%
CCOC(=O)c1sc(C)c2c1NC(C)(c1cccs1)NC2=O (stereo not drawn)	-3%
COC(=O)CCn1nnc(-c2cccs2)n1	-10%

Some of the entries so far, field by field.
ON1C(c2ccccc2C(F)(F)F)N(O)[C@H]2CCCC[C@H]21 (stereo partly drawn)
  AmpC inh no det: 8%
Cn1c(=N)n(CC(=O)C(C)(C)C)c2ccccc21
  AmpC inh no det: 20%
Cc1ccc(N(CC(=O)NCc2cccnc2)S(C)(=O)=O)cc1C
  AmpC inh no det: 9%
CCc1ccccc1Nc1nc(N)nc(COC(=O)c2cccn2C)n1
  AmpC inh no det: 27%

Pulled one by one from the entries so far (2):
SMILES	AmpC inh no det
Cn1c(=N)n(CC(=O)C(C)(C)C)c2ccccc21	20%
Cc1cc(C(=O)CSc2nnnn2-c2ccccc2)c(C)n1CC1CCCO1 (stereo not drawn)	19%

Additional compounds follow:
SMILES	AmpC inh no det
c1ccc2c(-c3nnc4n3CCCCC4)c[nH]c2c1	-1%
CCOc1ccc(NC(=O)COC(=O)c2cccnc2)cc1	6%
c1ccc(C(c2nnnn2C2CCCC2)N2CCCCCC2)nc1 (stereo not drawn)	49%
CCOc1ccccc1-c1nc(-c2ccc(C)nc2OC)no1	79%
Cc1ccccc1OCc1nc(-c2ccc(NC(=O)c3ccc4c(c3)OCO4)cc2)no1	13µM*
O=C(NCC1CCCO1)c1csc2c1CCCCC2 (stereo not drawn)	4%

A portion of the library (hit frequency here may not be typical).
